# Source: PubChem BioAssay
# Mtb MbtI inh = MbtI salicylate synthase inhibition | inhibition, %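 (about 17 µg/mL by stock and volumes)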 | purified MbtI enzyme, fluorescence intensity read-out | 0.89% of 100,000 active | P9WFX0;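 active = above 50% in both replicates, above 80% if mildly self-fluorescent; inactive = the rest, strongly fluorescent compounds included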;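 also: 0% = mean of negative and 100% = mean of positive controls; one replicate is shown; some compounds called inactive have numbers as strong as hits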
# Target sequence (P9WFX0 whole entry, looked up): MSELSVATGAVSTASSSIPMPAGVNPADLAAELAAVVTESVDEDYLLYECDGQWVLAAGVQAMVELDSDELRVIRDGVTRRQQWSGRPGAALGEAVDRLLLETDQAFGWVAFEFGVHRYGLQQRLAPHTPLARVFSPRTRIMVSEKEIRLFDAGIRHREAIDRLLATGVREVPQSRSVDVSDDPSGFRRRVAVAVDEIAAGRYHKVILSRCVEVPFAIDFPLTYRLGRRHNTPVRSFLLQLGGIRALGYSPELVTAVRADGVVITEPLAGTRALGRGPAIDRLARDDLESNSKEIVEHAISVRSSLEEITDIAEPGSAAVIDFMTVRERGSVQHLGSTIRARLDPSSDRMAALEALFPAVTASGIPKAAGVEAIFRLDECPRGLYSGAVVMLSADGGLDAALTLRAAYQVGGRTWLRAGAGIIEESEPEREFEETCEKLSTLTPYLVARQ
# Polio RdRp inh = inhibitors of poliovirus RNA polymerase binding and polymerization | AID 588519 | 0.66% of 150,000 active | P03300 | % elongation, % (compound at 16.7 µg/mL) | poliovirus polymerase elongation, fluorescence polarization; hits give low values; in the data active = % elongation below about 90%; also: some results filed as inactive read as strong as hits
# Target sequence (P03300 1749-2209 limits assumed): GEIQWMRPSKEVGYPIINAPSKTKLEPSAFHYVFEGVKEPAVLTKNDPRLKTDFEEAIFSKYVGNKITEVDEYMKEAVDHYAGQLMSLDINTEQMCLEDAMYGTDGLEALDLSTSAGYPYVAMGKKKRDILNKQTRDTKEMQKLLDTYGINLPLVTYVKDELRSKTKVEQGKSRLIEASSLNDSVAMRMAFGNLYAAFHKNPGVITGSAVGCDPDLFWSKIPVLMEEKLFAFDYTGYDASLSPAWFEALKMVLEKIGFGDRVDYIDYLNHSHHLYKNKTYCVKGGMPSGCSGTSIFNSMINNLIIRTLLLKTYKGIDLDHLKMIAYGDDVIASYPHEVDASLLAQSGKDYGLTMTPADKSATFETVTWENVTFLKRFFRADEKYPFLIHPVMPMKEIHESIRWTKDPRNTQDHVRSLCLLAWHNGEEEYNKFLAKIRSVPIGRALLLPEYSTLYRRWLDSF
# MenB inh = inhibitors of Mycobacterium tuberculosis MenB enzyme; AID 540299; 0.43% of 100,000 active; inhibition, %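 (about 12 µg/mL by stock and volumes)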; MenB enzyme assay, absorbance read-out; some hits fall short of the stated cut; P9WNP5;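 active = mean of two replicates above 30%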;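 also: 0% = no compound and 100% = wells with inactive enzyme; the first replicate is given; strong numbers were not always called active; inactives centre near -10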
# Polio RdRp inh intensity = also measured in Polio RdRp inh; calls as there; % elongation; measured here: total intensity read-out; formula for this scale not given here;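 total fluorescence in place of polarization; lower means less elongation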
# An asterisk follows results filed as active; nt = not tested or not shown; & = joins results of further samples.
SMILES,Mtb MbtI inh,Polio RdRp inh,Polio RdRp inh intensity,MenB inh
CCOc1ccc(C(c2nnnn2C(C)C)N2CCN(c3cccc(Cl)c3)CC2)cc1 (configuration not stated),-9,100,104,-16
COC(=O)C(C#N)=C1CCCC1,3,100,103,11
O=C(NCc1ccccc1Cl)c1cc2ccccn2n1,20,101,103,1
COc1ccc(CCNc2nc(C)nc3c2nnn3Cc2ccccc2)cc1OC,-3,100,104,39*
CCOC(=O)c1cnc(SC(C)C(=O)N2CCCc3ccccc32)nc1N (configuration not stated),-12,102,102,-4
Cc1cccc(C(=O)OCC(=O)NC2CCCCCC2)c1O,-9,101,101,nt
O=C(Nc1ccnn1Cc1ccccc1)c1cccnc1SC(F)F,5,103,104,-25
Cc1ccc(-n2c(Cc3cccn3C)nnc2SCC(=O)N2CCN(c3ccccc3)CC2)cc1,-6,101,103,-11
O=C(NC(Cc1ccccc1)C(=O)N1CCCc2ccccc21)c1ccco1 (configuration not stated),6,104,105,-28
CC1CCC2(C)c3[nH]c4ccccc4c3CCN2C1=O (configuration not stated),14,102,102,6
OC(COc1ccccc1)Cn1cnc2ccccc21 (configuration not stated),nt,104,104,3
Fc1ccc(-c2cnc(CSc3nnc(-c4ccccc4)n3-c3ccc(F)cc3)o2)cc1,2,104,98,-31
CN(C)c1nc2ccccc2n2cnnc12,-2,102,118,-18
Cc1sc2nc(NCCO)[nH]c(=O)c2c1C,5,101,101,-7
COc1ccc(-n2cc(C(=O)N3CCCN(Cc4ccccc4F)C3)c3ccccc3c2=O)cc1,-5,101,102,-9

# Sorted by length of the SMILES (ascending): part of the list above.
SMILES,Mtb MbtI inh,Polio RdRp inh,Polio RdRp inh intensity,MenB inh
COC(=O)C(C#N)=C1CCCC1,3,100,103,11
Cc1cccc(C(=O)OCC(=O)NC2CCCCCC2)c1O,-9,101,101,nt
COc1ccc(CCNc2nc(C)nc3c2nnn3Cc2ccccc2)cc1OC,-3,100,104,39*
Cc1ccc(-n2c(Cc3cccn3C)nnc2SCC(=O)N2CCN(c3ccccc3)CC2)cc1,-6,101,103,-11

# (cont.)
SMILES,Mtb MbtI inh,Polio RdRp inh,Polio RdRp inh intensity,MenB inh
COc1ccccc1NC(=O)[C@H](Cc1ccccc1)NC(=O)c1ccco1,-5,105,103,-22
Cc1cccc(NC(=O)CN2C(=S)NC(C)(C)CC2C)c1C (configuration not stated),9,100,101,-10
O=C(CCC(=O)N1CCOc2ccccc21)NCC1CCCO1 (configuration not stated),-8,99,102,4
COC(=O)C(CC(=O)Nc1cc(C)ccc1C)Nc1ccccc1OC (configuration not stated),-6,104,105,-6
Cc1cc(C)c2c(CC(=O)N(C)C)coc2c1,-6,100,103,4
O=C1C[C@H](N2C(=O)CCC2=O)C2CO[C@@H]1O2,nt,105,107,-14
Cc1ccc2nc3n(c(=O)c2c1)CCCc1nn(-c2nc(C)cc(C)n2)c(N)c1-3,5,104,102,-2
CN1CCCSC1=Nc1ccccc1F,-5,102,102,-18
CCCCn1c(SCC)nc2sc3c(c2c1=O)CCCC3,5,105,108,-7
CN(/C=C1\CCCCC1=O)C1CCCCC1,-2,103,110,10
COc1ccc(/C=C2\Oc3cc(OC(=O)c4ccc(F)cc4)ccc3C2=O)cc1,-234,103,107,-14
O=C(Nc1ccccc1)C(c1ccccc1)c1ccccc1,nt,111,109,-9
N#C/C(=C\c1ccc(C(F)(F)F)cc1)c1cn(C(=O)C2CCC2)c2ccccc12,-447,102,102,-26
C#CCn1c(Cc2ccccc2)nc2ccccc21,1,104,99,-37
CCS(=O)(=O)c1ccc2oc(NCCc3ccc(F)cc3)nc2c1,7,105,107,6
CC(=O)NC1C(OCCOc2ccc(Cl)cc2C)OC(CO)C(O)C1O (configuration not stated),2,103,107,12
CSc1nc2ccccc2n1C(=O)CCN1C(=O)/C(=C/c2cccs2)SC1=S,0,100,104,-21
CC1=C(C(=O)OC(C)C)C2(C(=O)N(C)c3ccccc32)C(C#N)=C(N)O1 (configuration not stated),0,103,101,-10
CCCc1ccc(C(=O)O)s1,-2,99,101,1
CCCCc1nnc(NC(=O)Cn2cnc3ccccc3c2=O)s1,-4,99,100,0
Cc1cc(Nc2ccccc2)n(C(=O)c2ccc(N)cc2)n1,-4,101,106,-17
O=C(COC(=O)C1CCCCC1)c1cccc2ccccc12,-11,103,104,nt
CNC(=O)CCC(=O)N1CC2CCCN2c2ccccc21 (configuration not stated),38,101,106,-8
CCN(c1ccccc1)C1(O)C(=O)c2ccccc2C1=O,-48,98,98,-24
CC1=N/C(=C2/C=C(c3ccc4c(c3)OCO4)Oc3ccccc32)C(=O)O1,-3,101,102,-12
COc1ccc(-c2ocnc2C(=O)NCC(C)c2ccccc2)cc1 (configuration not stated),116,101,103,-28
O=C(CNCc1ccccn1)NCc1ccc(Cl)cc1,-4,103,93,-50
O=C(NCCCn1ccnc1)Nc1ccc(Cl)cc1,-6,102,103,9
O=C1CCC(c2ccccc2)C(=O)C1C(=O)c1ccc(Cl)cc1Cl (configuration not stated),-4,110,104,-16
CCOC(=O)c1c(C)n(-c2ccc(C)cc2)c2ccc(OCC(O)CNCC3CCCO3)cc12 (configuration not stated),31,101,106,-13

# Part of the list above, showing only Polio RdRp inh, Mtb MbtI inh and MenB inh.
Structure	Polio RdRp inh	Mtb MbtI inh	MenB inh
CNC(=O)CCC(=O)N1CC2CCCN2c2ccccc21 (configuration not stated)	101	38	-8
CCN(c1ccccc1)C1(O)C(=O)c2ccccc2C1=O	98	-48	-24
CC1=N/C(=C2/C=C(c3ccc4c(c3)OCO4)Oc3ccccc32)C(=O)O1	101	-3	-12
COc1ccc(-c2ocnc2C(=O)NCC(C)c2ccccc2)cc1 (configuration not stated)	101	116	-28
O=C(CNCc1ccccn1)NCc1ccc(Cl)cc1	103	-4	-50
O=C(NCCCn1ccnc1)Nc1ccc(Cl)cc1	102	-6	9

# Additional entries:
SMILES,Mtb MbtI inh,Polio RdRp inh,Polio RdRp inh intensity,MenB inh
COC(=O)CC1=C(C(=O)OC)C2(C(=O)N1)C(C#N)=C(N)Oc1ccccc12 (configuration not stated),-11,100,99,6
COc1ccc(-c2[nH]ncc2CN(Cc2ccccc2)C(=O)/C=C/C(=O)O)cc1,28,nt,nt,7
CC(C(=O)O)N1c2cccc3cccc(c23)S1(=O)=O (configuration not stated),9,99,115,-71
O=C1CCCC(O)=C1C1c2ccccc2OC2CCCC(=O)C21 (configuration not stated),nt,104,106,2
Cn1cc(NC(=O)N(CCO)Cc2ccccc2)c2ccccc21,-52,102,102,3
CCC(=O)c1cc(-c2nc3ccccc3n2C)n(C)c1,nt,101,97,13
CCOC(=O)C1CCCN(CC(=O)Nc2ccc(C(=O)Nc3ccccc3OC)cc2)C1 (configuration not stated),-4,98,99,-26
CN(C)/C=C1/C(=O)N(c2ccccc2)N=C1C(C)(C)C,12,104,104,2
Cn1ccnc1SCC(=O)Nc1ccc2ccccc2c1,-2,99,99,nt
Clc1ccc(-c2noc(CCCSc3nnnn3-c3ccccc3)n2)cc1,2,99,102,-12
CCN(CC)C(=O)CN1C=NS(=O)(=O)c2ccccc21,-22,99,102,2
CN(C(=O)CSc1nncc(=O)[nH]1)c1ccccc1,-3,102,100,-12
CC(C)n1nccc1NS(=O)(=O)c1ccccc1,6,100,105,5
CC(=O)N1C(=O)C(=C2C=C(C)OC(C)=C2)c2ccccc21,7,113,171,-11
CN1CCc2c1nc1ccccc1c2N=C1CCCN1c1ccccc1,-21,99,103,-1

# Reformatted field by field: 2 of the compounds above.
> CCN(c1ccccc1)C1(O)C(=O)c2ccccc2C1=O
  Mtb MbtI inh: -48
  Polio RdRp inh: 98
  Polio RdRp inh intensity: 98
  MenB inh: -24

> CC1=N/C(=C2/C=C(c3ccc4c(c3)OCO4)Oc3ccccc32)C(=O)O1
  Mtb MbtI inh: -3
  Polio RdRp inh: 101
  Polio RdRp inh intensity: 102
  MenB inh: -12

# (listing goes on)
SMILES,Mtb MbtI inh,Polio RdRp inh,Polio RdRp inh intensity,MenB inh
CC1(C)CC2CC(C)(CN2/C=C2/CCCCC2=O)C1 (configuration not stated),15,107,122,-29
O=C(CCn1c(=O)oc2ccccc21)Nc1ccc(Cl)cc1,5,102,106,-57
COC(=O)c1ccc(CN(C(C)=O)C(=O)Nc2ccc(C(=O)OC)cc2C)cc1,-3,101,106,9
CCOC(=O)c1cnc(SCC(=O)N(C)c2ccccc2)nc1N,1,102,98,-4
S=c1[nH]nc(NCCc2ccccc2)s1,87,99,103,-54
CSc1nc2ncc(C(=O)c3ccccc3O)cc2c(=O)[nH]1,11,100,106,-16
CN(C)S(=O)(=O)c1ccc(N2CCC(CNC(=O)Nc3ccccc3)CC2)cc1,-3,106,100,-48
c1snnc1C12CC3CC(CC(C3)C1)C2,-13,100,101,-10
CCCNC(=O)Nc1ccc(C(F)(F)F)cc1,7,101,98,-6
CCc1ccccc1NC(=O)CN1CCC(NC(=O)NC2CCCCC2)CC1,0,101,102,5
O=P(CCNCc1cccnc1)(c1ccccc1)c1ccccc1,0,101,105,9
Cc1occc1-c1nnc(SCc2nnc(-c3ccc(F)cc3)o2)n1C,-24,109,119,-3
CCN(CC)S(=O)(=O)c1cccc(-c2nnc(SC(C)C)n2-c2ccccc2)c1,-4,103,108,-3
Cc1ccc(NC(=O)c2c(Cl)nc3sccn23)c(S(=O)(=O)N2CCCCC2)c1,-10,106,95,-91
CCCn1c(=C(C#N)C#N)s/c(=C2\C=Cc3ccccc3N2CC)c1=O,-4,107,100,-47
CCN(CC)c1nc(-c2ccc(OC)c(OC)c2)cc(C(F)(F)F)n1,24,99,102,-68
CO/N=C1\C(C)=C(C#N)C2C1C2(C)C (configuration not stated),-6,98,106,5
COc1ccc(-c2csc(C3=C(O)CN(C(C)C)C3=N)n2)cc1OC,30,107,98,10
CCOC(=O)c1oc2ccc(CC/C(C)=N/NC(=O)c3ccc(OC)c(OC)c3)cc2c1C,23,103,102,-11
O=C(/C=C/c1ccco1)OCC(=O)c1ccc(F)cc1,14,101,104,-13
CCCc1cc(NC(C)c2ccccc2)n2c(nc3ccccc32)c1C#N (configuration not stated),-140,104,99,-41
COCCNC(=O)c1ccccc1-c1ccccc1C(=O)O,-6,100,102,-7
O=C(COc1ncnc2ccccc12)N(Cc1ccccc1)Cc1ccccc1,-8,102,107,nt
Cc1ccsc1CN(C)C(=O)c1cc(S(C)(=O)=O)ccc1Cl,10,101,100,-6
CCN(C(=O)CSc1ncc(-c2ccc(C)cc2)n1C)C1=CCCC1,5,101,105,-22
Cc1ccc2nc(-c3ccc(C)o3)c(NC3CCCCC3)n2c1,25,102,103,-26
O=C(NCCSc1ccc(Cl)cc1)Nc1ccccc1,-6,100,104,3
O=C(NCc1cccnc1)c1ccc2nc(-c3ccco3)c(-c3ccco3)nc2c1,32,98,97,-85
Cc1ccc(-n2c(C)cc(=O)cc2C)cc1,-3,nt,nt,-7
CC1CCc2c(sc3[nH]c(=O)n4nc(-c5cccc(S(=O)(=O)N6CCOCC6)c5)nc4c23)C1 (configuration not stated),5,104,106,-12
O=C(O)C1CCCN1C(=O)OCC1c2ccccc2-c2ccccc21 (configuration not stated),-5,106,104,-18
CC(C)(C)S(=O)(=O)c1ccccc1C(=O)O,-7,102,102,-28
COc1cc(C(=O)OC2CC3CCC2(C)C3(C)C)ccc1O (configuration not stated),-4,101,104,-31
CCOC(=O)c1oc2ccc(Br)cc2c1COC(=O)CNC(=O)c1cccc(OC)c1,-7,101,97,-35
O=C(NCc1ccc(F)cc1)C1CCC(=O)N1CCc1ccccc1 (configuration not stated),-9,103,105,5
Cc1csc(NC(=O)c2ccccc2)n1,10,99&102,107&106,3
COc1ccc(NC(=O)C(=S)N2CCCCC2)cc1,-3,100,103,-16
O=C(N/N=C/c1ccc(C(F)(F)F)cc1)c1ccccn1,-3,106,102,-22
O=C(c1ccccc1)c1cc2ccccc2o1,nt,98,106,-10
COC(=O)C1=CN(C2CC2)C=C(C(=O)OC)C1c1ccc(Cl)cc1,-4,105,102,-11
CCc1ccc2nc(N3CCC(C(=O)NC4CCCCC4)CC3)sc2c1,4,102,93,-7
CCC(CC)n1c(COc2ccccc2Cl)nnc1SC(C)C#N (configuration not stated),-2,105,100,-26
N#Cc1ccccc1S(=O)(=O)Nc1cccc(-c2nnc3n2CCCCC3)c1,-2,100,105,-12
Cn1cc(Cl)c(C(=O)OCC(=O)NCc2ccccc2)n1,-6,101,100,-21
COc1cccc(/C=C2\CCCCC2=O)c1,21,101,103,-19
CCOc1ccc(OCC)c(NC(=O)C2COc3ccccc3O2)c1 (configuration not stated),-1,100,97,-40
CCOC(=O)CNc1ccc(C(=O)O)cc1,-12,102,105,-6
CN(Cc1nc2ccccc2c(=O)n1CC(N)=O)C1CCCCC1,3,102,105,5
CC1=CCC2C(=O)N(c3cccc(C(=O)NCc4ccccc4)c3)C(=O)C2C1 (configuration not stated),1,104,107,-19
CN(C)/C=C1\C=C(c2ccccc2)OC1=O,8,100,101,-43
COc1ccc(CC2C(=O)N(C)C(=O)N(C)C2=O)cc1,4,101,101,22
CN(CCCN1C(=O)c2ccccc2C1=O)CCCN1C(=O)c2ccccc2C1=O,3,102,101,-3
CCc1ccccc1NC(=O)c1noc2c1CCc1ccccc1-2,12,99,98,-14
CCC(C)n1cnc2ccccc21 (configuration not stated),-10,100,108,-2
Cc1nc2sccn2c(=O)c1S(=O)(=O)NCCCN1CCN(c2ccccc2)CC1,-10,101,103,-1
CCC(=O)Nc1sc2c(c1C(N)=O)CCCC2,nt,99,104,-7
COc1cc(-c2nnc(COc3ncnc4c(Cl)cc(Cl)cc34)o2)cc(OC)c1OC,-21,114,105,-22
